RanGTP-Imp inh: disruptors of Ran-importin-beta complex formation – biochemical, FRET, CFP-Ran, YFP-importin-beta, homogeneous, primary screen. cell-free CFP-Ran/YFP-importin-beta FRET ratio. AID 2216. inhibition, % (test concentration not listed). actives 1.1% (n = 300,000);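 active means most replicates above 15%; inconclusive means exactly half above 15%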;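 further: 0% = DMSO wells and 100% = Ran loaded with GDP instead of GTP; wells of about 40 µL received 100 nL stock; the first replicate is given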
Calb FLC: affects C. albicans growth with fluconazole; C. albicans CaCi-2 (fluconazole-resistant clinical isolate) + fluconazole, Alamar Blue growth, 48 h; growth inhibition, % (concentration not given with the values); actives 0.57% (n = 300,000);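 active means most replicates above 75%; inconclusive means exactly half above 75%; inactive means most below 75%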;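 further: all wells also contain fluconazole at 8 µg/ml as a sub-toxic cotreatment; 0% = median of DMSO wells and 100% = median of geldanamycin control wells; wells of about 8 µL received 7.5 nL stock; the first replicate is given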
Vif TR-FRET: inhibitors of Vif binding to APOBEC3G peptide, primary screen, biochemical, TR-FRET, GST-Vif 1-94, biotin-A3G peptide, dose response retest (AID 1117319) | TR-FRET GST-Vif / biotin-A3G peptide binding; higher % means a stronger effect; test concentration not given here; strong numbers were not always called active | one-dose inhibition, %; IC50 in µM for titrated hits | actives 0.57% (n = 260,000);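 active means above the screen mean plus three standard deviations and confirmed in dose response; inconclusive means results disagree or hit not tested in dose response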;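 further: Vif residues 1-94 fused to GST binding biotinylated APOBEC3G peptide 110-148; 0% = full assay without inhibitor and 100% = GST in place of GST-Vif; retest series ran down from 100 µM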
Bfl-1 A1 inh: inhibitors of the anti-apoptotic protein A1, read as caspase activation; MEF A1-2A-BIM cells, Caspase-Glo 3/7 luminescence, 3 h; percent of clofoctol response, vehicle zero; caspase activation, % (test concentration not listed); AID 2462; actives 0.066% (n = 330,000);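 active means over half of replicate activation scores above 10%, or exactly half above 10 with the replicate mean above 10; inconclusive means replicate mean below 10 yet half the replicates above 10; inactive means over half of replicates below 10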;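 further: wells of about 30 µL received 50 nL stock; many hits fall short of the cut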
Ecoli rRNA inh: inhibitors of bacterial rRNA selective over humanized ribosomes; E. coli WT GFP vs humanized-ribosome RFP mutants, fluorescence, 24 h; hits give low values; DMSO median 0, no signal -100; GFP signal change (wild-type ribosome), % (concentration not given with the values); actives 1.6% (n = 350,000); AID 720706;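 active means significant combined selectivity score with lowered wild-type GFP, culture density cut under 30%, mutant RFP and density less affected; inactive means any of these conditions unmet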; further: one replicate is shown; some compounds called inactive have numbers as strong as hits
T cruzi repl: blocks replication of Trypanosoma cruzi | T. cruzi beta-gal in NIH3T3, luminescence, 90 h | inhibition, % (concentration not given with the values) | actives 1.4% (n = 300,000) | AID 1885;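 active means mean inhibition across valid replicates above about 55%, limit read from the data; inconclusive means mean below that limit but half or more replicates reach it; inactive means mean below it, under half of replicates reach it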;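 further: signal also drops with host cell toxicity which is not excluded here; 0% = plate median of DMSO wells and 100% = zero luminescence signal; higher percent means less beta-gal luminescence so fewer parasites; stock transfer was 50 nL into about 50 µL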
Beta cell apopt: beta cell apoptosis inhibition; INS-1E cytokine-induced death, ATP luminescence, 48 h; percent of positive-control rescue, neutral wells zero; protection from apoptosis, % (test concentration not listed); actives 0.8% (n = 300,000); AID 435005;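 active means all replicates at 75% or more, or half of them and the mean; inconclusive means half reach 75% but not the mean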;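 further: 0% = cytokine-treated negative control wells and 100% = positive control rescue; higher means more ATP so stronger rescue from cytokine killing; wells of about 40 µL received 100 nL stock; the first replicate is given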
MLL AF4-AF9 inh: MLL-AF4/AF9 protein interaction inhibition. P42568. AlphaScreen, biotin-AF4 peptide binding to FLAG-AF9. inhibition, % at 10 µM. actives 0.47% (n = 350,000). AID 651704;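 active means every replicate reaching a set inhibition limit, whatever the replicate mean, cut at about 25% in these data; inconclusive means mean inhibition reaches that limit but some replicates miss it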;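 further: 0% = plate neutral control median and 100% = total signal loss; the record names both 10 and 1 µM as test concentration; the first replicate is given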
Target sequence (P42568 whole entry, looked up): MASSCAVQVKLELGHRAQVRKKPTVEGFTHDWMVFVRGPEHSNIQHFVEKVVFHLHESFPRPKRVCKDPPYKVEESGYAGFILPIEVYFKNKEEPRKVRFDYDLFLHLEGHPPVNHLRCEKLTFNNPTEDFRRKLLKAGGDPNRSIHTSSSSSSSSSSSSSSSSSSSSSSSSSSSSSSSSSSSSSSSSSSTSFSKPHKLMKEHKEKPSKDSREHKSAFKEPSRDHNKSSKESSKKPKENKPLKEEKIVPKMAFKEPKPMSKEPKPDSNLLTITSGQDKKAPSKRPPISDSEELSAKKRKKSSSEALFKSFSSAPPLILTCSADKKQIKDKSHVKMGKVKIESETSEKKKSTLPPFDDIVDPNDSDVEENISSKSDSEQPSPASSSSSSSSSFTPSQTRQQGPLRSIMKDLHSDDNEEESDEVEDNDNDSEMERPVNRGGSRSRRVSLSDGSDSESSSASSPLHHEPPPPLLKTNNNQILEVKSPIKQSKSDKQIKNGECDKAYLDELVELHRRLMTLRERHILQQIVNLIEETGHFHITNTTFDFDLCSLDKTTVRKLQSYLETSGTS
Ecoli rRNA inh OD600: recorded beside Ecoli rRNA inh, whose call it bears; OD600 change, %; measured here: OD600 growth;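 optical density of the mix in the first replicate; 0 = DMSO median and -100 = no signal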
Ecoli rRNA inh RFP: also measured in Ecoli rRNA inh; calls as there; RFP signal change, %; measured here: RFP humanized mutant strains;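 first replicate; 0 = DMSO median and -100 = no signal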
Starred values were filed as active, the others as inactive; ? = inconclusive; . = no result given.

SMILES	RanGTP-Imp inh	Calb FLC	Vif TR-FRET	Bfl-1 A1 inh	Ecoli rRNA inh	Ecoli rRNA inh OD600	Ecoli rRNA inh RFP	T cruzi repl	Beta cell apopt	MLL AF4-AF9 inh
COc1ccc(-c2cn3cccnc3n2)cc1Br	0.8	-1	4%	-0.7	.	.	.	-11	9	-0.9
COc1ccc(CCN=Cc2c(C)[nH]n(-c3ccc([N+](=O)[O-])cc3)c2=O)cc1OC	-1.4	-1	3%	-1.3	6	-4	6.2	3	6	-3.9
Cc1ccc(CCS(=O)(=O)c2ccc(C(C)(C)C)cc2)cn1	4.5	-13	.	0.3	-15	-13	-8.5	11	8	-1.7
O=C(COc1cc(=O)n2c(n1)SCCC2)c1ccccc1	2.2	5	-8%	0.1	.	.	.	13	-5	.
CCC(=O)N(Cc1cc(=O)[nH]c2ccccc12)c1ccc(OC)cc1	-4.3	-9	-1%	0.0	5	7	-0.4	-5	-1	2.2
Cc1c(Br)c([N+](=O)[O-])nn1C(C)C(=O)N1CCc2ccccc2C1 (stereo not given)	3.8	21	4%	0.3	-5	-8	-2.5	50	-2	0.2
CC(OC(=O)c1ccncc1)C(=O)NC1CCCC1 (stereo not given)	3.8	4	8%	0.2	14	12	0.0	11	0	-0.9
O=S(=O)(Nc1ccc(-n2cccc2)cc1)c1ccc(F)cc1	0.5	7	-6%	1.7	-59	-80	-32	2	.	4.9
Cc1ccc(NC(=O)Cn2cccc2)cc1	0.7	-4	4%	0.1	15	5	-0.7	-46	-4	4.0
Cc1ccc(CNC(=O)CCn2cc(-c3ccc(C)cc3)nc2CCN)cc1	.	.	.	0.7	12	2	11	.	-3	11
NS(=O)(=O)c1ccc(NC(=O)c2ccccc2Cl)cc1	-11	-16	23%	1.0	.	.	.	1	0	.
CCCN1CCC(NC(=S)Nc2ccc([N+](=O)[O-])cc2)CC1	?	-10	6%	0.5	2	-1	-5.1	41	2	6.6
CSCCC(NC(=O)c1ccccc1Br)C(=O)NNC(=O)c1ccco1 (stereo not given)	.	.	-11%	0.2	5	16	-1.7	.	-8	-1.7
Cc1ccc(C2=NN(C(=O)c3ccco3)C(O)(C(F)(F)F)C2)cc1 (stereo not given)	2.7	-18	0%	1.3	-49	-76	-10	15	7	1.0
O=C(NCc1ccc(OC(F)(F)F)cc1)C1CC(c2ccc(C(F)(F)F)cc2)=NO1 (stereo not given)	2.9	-1	.	0.1	3	8	-1.0	-14	3	1.1
Cc1ccc(S(=O)(=O)N2CCOCC2)cc1NC(=O)COC(=O)/C=C/c1ccc(F)cc1	.	.	-5%	-1.2	8	14	4.0	.	2	0.6
COCCC(=O)N1CCCC(C(=O)c2ccc(Oc3ccccc3)cc2)C1 (stereo not given)	-0.7	38	10%	-0.3	-28	-33	-4.5	5	-1	-0.2
COc1ccc(-c2nnc3c4ccccc4c(C)nn23)cc1S(=O)(=O)N1CCN(CCO)CC1	2.1	2	17%	-0.6	.	.	.	-7	13	.
CCOC(=O)COc1ccc(S(=O)(=O)Nc2ccc3c(c2)OCCO3)cc1	2.0	39	5%	-1.1	.	.	.	4	-7	.
CN1C(=O)C2C(c3ccc(N(C)C)cc3)NN(Cc3ccccc3)C2C1=O (stereo not given)	0.6	7	23%	0.2	-13	-1	-4.1	-4	2	18
CC(C)(C)NC(=O)COc1ccc2oc3c(c2c1)CCCC3	-3.6	5	4%	-0.1	-4	-4	-0.6	4	-4	1.6
Cc1c(NS(=O)(=O)c2ccc(C(=O)NCc3ccccc3)cc2)c(=O)n(-c2ccccc2)n1C	1.0	-30	-3%	-1.1	14	5	0.5	-2	-2	-0.1
COc1cccc(NC(=O)CSc2nc3ccccc3n2C)c1	-3.0	-19	6%	0.2	-21	-23	-0.7	11	-1	-4.0
O/N=C\c1cnc(N2CCN(c3ccccc3)CC2)s1	-1.3	-20	-7%	-0.5	-11	15	5.5	-9	-3	-0.9
COC(=O)c1ccccc1NC(=O)c1cc(-c2cccs2)on1	-1.3	1	-10%	-0.1	17	8	-5.8	-10	24	-11
CC(C)[C@H](NC(=O)C1CC(=O)N(c2ccc3c(c2)OCO3)C1)C(=O)NC1CCCC1 (stereo not given in full)	-3.6	-12	32%	-0.1	-5	4	-4.7	-11	-5	-2.1
O=C(CN1CCN(c2ccccc2)CC1)Nc1ccc2c(c1)CCC2	-2.1	7	.	-0.7	-1	0	0.1	-2	-1	-1.8
CCN(C(=O)c1cc2c(C)nc3ccccc3c2o1)c1cc(Cl)ccc1OC	-8.9	?	-3%	-0.2	-30	-8	28	37	12	4.0
O=C(CSc1ncn[nH]1)NCCC(c1ccccc1)c1ccccc1	-0.7	-11	2%	0.9	.	.	.	2	-8	.
O=C(CSc1ccc2nnc(-c3cccc(F)c3)n2n1)NCc1ccco1	5.9	30	?	-0.1	19	14	-5.8	6	8	3.1
COc1cc(/C=C/C(=O)c2c(O)cc(C)oc2=O)cc(OC)c1O	-8.1	32	?	0.6	.	.	.	7	-11	.
Cc1ccc(NC(=O)Nc2ccc(Cl)c(Cl)c2)nc1	6.1	.	2%	-0.1	-4	7	-3.5	3	4	-1.6
CCc1c(C)nc2cc(-c3ccc(Cl)cc3)[nH]n2c1=O	0.2	12	?	0.2	6	9	7.3	2	-3	-1.0
CCOC(=O)C1=C(C)NC(=O)NC1/C=C/c1ccccc1 (stereo not given)	6.5	-2	6%	-0.3	.	.	.	-2	0	.
O=C(/C=C/c1ccc([N+](=O)[O-])cc1)NCC1CCCO1 (stereo not given)	-0.6	-2	5%	0.0	.	.	.	-15	-4	.
COc1cccc(C(=O)Nn2cnnc2)c1OC	0.8	-7	.	1.0	5	9	1.4	0	3	-5.1
CCN(CC)S(=O)(=O)c1ccc(C)c(NC(=O)Cn2cnc3cc([N+](=O)[O-])ccc3c2=O)c1	-1.5	-6	-1%	2.9	8	-1	-1.4	85*	0	-0.4
CC(C)(CNS(=O)(=O)c1ccc(F)cc1)CNS(=O)(=O)c1ccc(F)cc1	0.3	-3	0%	0.3	.	.	.	-9	0	.
Cc1ccc(NC(=O)CCCc2c[nH]c3ccccc23)nc1	-1.2	5	.	-0.6	-2	-1	0.7	3	-6	0.5
COc1ccc(OC)c(Nc2nc(-c3sc(NC(=O)CC(C)C)nc3C)cs2)c1	-4.3	22	-6%	-0.2	12	12	-7.5	17	8	0.5
CCOC(=O)c1c(C)[nH]c(C(=O)OCCOc2ccc(Cl)cc2)c1C	1.2	9	.	0.8	-3	2	-4.0	7	1	-0.9
O=C1NN(c2ccc(Cl)c(Cl)c2)C(=O)/C1=C/c1cccc(OC(=O)c2cccs2)c1	-2.9	3	6%	0.4	.	.	.	7	-6	.
Cc1cc(C(C)(C)C)cc(S(=O)(=O)Nc2ccc(C(=O)O)cc2)c1C	?	1	-3%	-0.7	-19	-18	1.1	2	-7	0.3
Cc1nc(-c2ccc(S(=O)(=O)N3CCN(Cc4ccccc4)CC3)s2)cs1	1.2	0	2%	-0.8	-16	-4	8.9	-3	2	2.0
COC(=O)[C@]1(C)N[C@H](CN(C)C(=O)Nc2ccc(OC)cc2)[C@@H]2C(=O)N(Cc3ccccc3)C(=O)[C@@H]21	.	.	3%	-0.4	21	22	6.5	.	-11	0.3
CC(C)n1c(=O)c2c(O)cc(=O)oc2c2ccccc21	4.0	-4	2%	-0.3	.	.	.	-21	-4	.
CC(C)c1ccccc1NC(=O)COC(=O)CCN1C(=O)/C(=C\C=C\c2ccccc2)SC1=S	-5.8	3	13%	-0.8	8	12	3.8	15	6	0.1
COC(=O)CSc1nc(C)c(C(=O)Nc2ccccc2C)c(-c2ccc(Cl)cc2)c1C#N	?	?	.	-0.5	.	.	.	7	-14	.
Cc1ccc(NC(=S)N(CCN2CCOCC2)Cc2cc3cc4c(cc3[nH]c2=O)OCCO4)cc1	-1.3	-1	?	0.8	6	2	0.0	2	1	4.5
CCOc1ccccc1C(=O)Nc1ccc(-n2nncc2C(C)(C)C)cc1	-1.3	-21	1%	-0.8	6	2	-1.7	34	5	-15
COc1ccccc1-c1n[nH]c2c1[C@H](C)CC[C@H]2C(C)C	8.7	-1	23%	0.0	.	.	.	24	2	.
CN1CCN(S(=O)(=O)c2cccc([N+](=O)[O-])c2)CC1	.	-7	1%	0.3	20	25	-11	-5	-4	-39
COc1cc2c(cc1OC)C(c1ccccc1O)NCC2 (stereo not given)	-0.5	-3	6%	-0.3	-9	-7	-2.0	-2	-1	1.2
N#Cc1nc(COc2ccc(Cl)cc2)oc1N1CCN(Cc2ccccc2)CC1	-2.8	-1	5%	0.0	.	.	.	32	3	.
CCOC(=O)C1(CC2CC2)CCN(C(=O)c2cc(C3CC3)nc3ccccc23)CC1	4.1	?	-11%	0.1	-11	-12	-2.7	10	-3	0.8
Cc1cccc(C)c1NC(=O)CSc1nnc(Cc2ccccc2)o1	-2.5	1	-1%	-0.1	.	.	.	-1	1	.
CCOC(=O)C1=NOC(Cn2cc(C#N)c(=O)n(C)c2=O)C1 (stereo not given)	-0.9	-5	-11%	-0.4	11	11	1.1	-6	-2	-2.1
O=C(c1ccc2c(c1)OCO2)[C@@H]1[C@@H]2C(=O)N(C3CCCCC3)C(=O)[C@@H]2C2c3ccccc3C=CN21 (stereo not given in full)	-2.9	-5	17%	.	.	.	.	18	.	.
CCC(CC)c1nnc(NC(=O)CCc2ccc(OC)cc2)s1	-1.1	0	-6%	0.2	21	12	4.6	-4	4	1.4
COCCNC(=O)C1(C(F)(F)F)CC(CCCO)CCCO1 (stereo not given)	-3.8	-6	.	-0.8	11	11	0.3	8	-6	-2.0
Other structures.
SMILES	RanGTP-Imp inh	Calb FLC	Vif TR-FRET	Bfl-1 A1 inh	Ecoli rRNA inh	Ecoli rRNA inh OD600	Ecoli rRNA inh RFP	T cruzi repl	Beta cell apopt	MLL AF4-AF9 inh
Cc1ccccc1/C=C/c1nc2ccccc2c(=O)n1CCc1ccccc1	-4.0	-26	10%	0.5	.	.	.	14	7	.
CCNC(=O)CC1SC(=Nc2cccc(Cl)c2C)N(C)C1=O (stereo not given)	-7.7	18	22%	0.8	.	.	.	-12	-2	.
O=c1[nH]c(COc2ccc(Cl)cc2Cl)nc2ccccc12	2.8	40	.	-3.2	3	13	-5.2	8	1	-0.2
COc1ccc2c(c1)CCC1C2=NN(/C(C)=C/C(C)=O)C1c1cccc(F)c1 (stereo not given)	-0.3	13	7%	0.4	.	.	.	-5	2	7.3

These rows are one share of the data; count on the stated rates, not on these rows.
